VACV E9 pol inh = vaccinia E9 polymerase processive synthesis inhibitors, primary screen, biochemical, absorbance; Vaccinia virus DNA polymerase (E9) processive complex; in vitro processive DNA synthesis, absorbance read-out; stronger effect = lower value; some inactives read as strong as hits; normalized absorbance, % (no concentration beside the values); hit rate 0.94% among 46,000; AID 493162, 2011;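 active = replicate mean up to 90% and picked by the depositor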;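 note: 100% = median of the test wells of a plate; 100 nL library stock went into each well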
Starred values were filed as active, the others as inactive. Not all compounds are listed; rates above refer to the full screens.

The first 10 compounds, ahead of the listing:
SMILES	VACV E9 pol inh
O=C(CCCN1C(=O)CSc2ncccc21)N1CCCCC1	98
CC1CCCN(C(=O)C2c3ccccc3C(=O)N(C)C2c2c[nH]c3ccccc23)C1 (centres undefined)	91
CCc1cccc(OCC(=O)Nc2ccc(S(=O)(=O)Nc3nccs3)cc2)c1	100
COc1ccc(OC)c(-n2c(=S)[nH]c3cc(C(=O)NCc4ccc(F)cc4)ccc3c2=O)c1	102
CCCNC(=O)c1ccc2ccccc2c1	106
Cc1csc2ncnc(N3CCN(C(=O)Nc4ccc(OC(F)(F)F)cc4)CC3)c12	105
Cc1ccc2nc(C)cc(NC3CCCCC3)c2c1	99
CC(=O)Nc1ccc2c(c1)nc(C)n2C	99
COc1ccc(N)cn1	98
O=C(OCc1cccc(COC(=O)c2ccc(Cl)cc2)n1)c1ccc(Cl)cc1	100

Results, from the start:
SMILES	VACV E9 pol inh
O=C(CCCN1C(=O)CSc2ncccc21)N1CCCCC1	98
CC1CCCN(C(=O)C2c3ccccc3C(=O)N(C)C2c2c[nH]c3ccccc23)C1 (centres undefined)	91
CCc1cccc(OCC(=O)Nc2ccc(S(=O)(=O)Nc3nccs3)cc2)c1	100
COc1ccc(OC)c(-n2c(=S)[nH]c3cc(C(=O)NCc4ccc(F)cc4)ccc3c2=O)c1	102
CCCNC(=O)c1ccc2ccccc2c1	106
Cc1csc2ncnc(N3CCN(C(=O)Nc4ccc(OC(F)(F)F)cc4)CC3)c12	105
Cc1ccc2nc(C)cc(NC3CCCCC3)c2c1	99
CC(=O)Nc1ccc2c(c1)nc(C)n2C	99
COc1ccc(N)cn1	98
O=C(OCc1cccc(COC(=O)c2ccc(Cl)cc2)n1)c1ccc(Cl)cc1	100
NS(=O)(=O)c1ccc(Nc2nc3sc4c(c3c(=O)s2)CCCC4)cc1	76
CC1(C)C2CCC1(CS(=O)(=O)NC1CCCC1)C(=O)C2 (centres undefined)	101
Nc1c(-c2ccc(Cl)cc2)nnn1-c1ccccc1	102
Cc1cc(N)n(C(C)(C)C)n1	90
CCN(CC)C(=O)COc1ccc2c(c1)C(=O)CC(C)(C)O2	99
Cc1ccc(C(=O)c2cnc3ccccc3c2N2CCCC2)cc1	87
COc1ccccc1Nc1nc2c(S(=O)(=O)c3c(C)cc(C)cc3C)nnn2c2ccccc12	96
O=C(O)Cn1c(=S)sc2ccccc21	102
COc1ccccc1-c1nnc(C2CCN(C(=O)c3ccccc3)CC2)o1	101
Fc1ccc(CN2CCCN(Cc3ccc(F)cc3)C2c2cccs2)cc1	117
CCCc1cc(C2C(C#N)=C(N)Nc3oc(OC)nc32)ccc1OC(C)C (centres undefined)	101
CC1CC(C)CN(C(=O)c2ccco2)C1 (centres undefined)	101
Cc1cc(-c2nc(C(=O)N3CCCCC3)cs2)no1	100
CN1CCCN(C(=O)/C=C/c2ccc(Cl)cc2Cl)CC1	106
COc1ccc(CN=Cc2ccc(NC(C)=O)cc2)cc1	104
(continued)
SMILES	VACV E9 pol inh
Cc1ccccc1NC(=O)/C=N/O	106
O=S(=O)(c1ccc(Cl)cc1)N1c2ccccc2Sc2ccc(C(F)(F)F)cc21	99
CCOc1ccccc1C(=O)NCCc1cc2ccc(C)c(C)c2[nH]c1=O	102
COc1ccc(Cl)cc1NC(=O)c1nc2nc(-c3ccccc3)cc(C(F)(F)F)n2n1	100
CCOC(=O)c1ccc(NC(=O)C2C(=O)N(C)C3(C)CC2c2ccccc2O3)cc1 (centres undefined)	100
CCOc1cc(C)c2c(=O)c(-c3ccccn3)c(C)oc2c1	87
FC(F)(F)c1nc2ccccc2n1CCOc1ccccc1	100
Cc1ccc(NC(=O)C2CC(=O)N(Cc3ccco3)C2)cc1 (centres undefined)	74
Cc1cc(C)n2c(SCCC(C)C)nnc2n1	104
Cc1ccc(C2C(C#N)=C(N)Oc3c2c(=O)oc2ccccc32)o1 (centres undefined)	99
O=C(CN1C(=O)/C(=C/c2ccccc2)SC1=S)OC1CCCCC1	86
C=CCn1c(-c2ccccc2)nn(CN2CC(C)OC(C)C2)c1=S (centres undefined)	97
COc1cc(C(=O)N2CCN(C(=O)Cc3ccccc3)CC2)cc(OC)c1OC	86
CCC1CCCCN1C(=O)c1ccc(OC)cc1 (centres undefined)	101
CC(C)CC(NS(=O)(=O)c1cccs1)C(=O)O (centres undefined)	100
O=c1[nH]c2ccc(F)cc2c(O)c1-c1ccccc1	98
CN1C2CCC1CC(N=Cc1c(F)cccc1Cl)C2 (centres undefined)	105
CCOC(=O)c1c(C)oc2c1c(CN1CCN(CC)CC1)c(O)c1ccccc12	101
CC1CC(C)(C)NC(=S)N1CCC(=O)Nc1ccc2c(c1)OCCO2 (centres undefined)	108
COC(CNC(=O)c1cc(-c2ccccn2)nc2ccc(S(=O)(=O)N3CCC(C)CC3)cc12)OC	104
CC(C)CCNC(=O)c1ccc2nc(-c3cccs3)c(-c3cccs3)nc2c1	100
CCCCC1(COC(=O)CCC(=O)O)C(=O)N(c2ccccc2)N(c2ccccc2)C1=O	94
C[N+]1(CCCl)CC[N+](C)(CCCl)CC1 (centres undefined)	90
O=C(OCCC1(c2ccccc2)C(=O)c2ccccc2C1=O)c1cc2ccccc2oc1=O	98
Cc1ccc(-c2cc(C(=O)N3CCCCC3C)c3ccccc3n2)cc1 (centres undefined)	99
Further compounds:
SMILES	VACV E9 pol inh
CC(C)(C)C(=O)CSc1nc(N)c(C#N)c(-c2cccs2)c1C#N	100
Oc1c(C=Nc2ccccc2)sc2ccccc12	80
O=C(Nc1nc(-c2ccccc2)cs1)c1ccco1	102
O=S(=O)(/C=C/c1ccccc1)Nc1ccc(F)cc1	76*
CNC(=O)CCCc1cn(Cc2ccccc2Cl)c2ccccc12	101
Fc1ccc(-c2csc(Cc3nnc4n3CCCCC4)n2)cc1	100
O=C(c1ccccc1O)N1CCOCC1	99
Cc1sc2ncnc(N3CCN(CCO)CC3)c2c1C	80
N#Cc1c(-c2ccccc2)nc2sccn12	95
Cc1c(Cc2ccccc2)c(Cl)n2c(nc3ccccc32)c1C#N	100
COc1cccc(NC(=S)N(CCN(C)C)C(C)c2ccncc2)c1 (centres undefined)	92
Cc1cccc(CN2CCN(C(c3ccccc3)c3ccc(Cl)cc3)CC2)c1 (centres undefined)	100
Cn1nc(-c2ccc(C(=O)NCC3CCCO3)cc2)c2ccccc2c1=O (centres undefined)	98
O=C(CSc1cccc[n+]1[O-])NCC1CCCO1 (centres undefined)	114
N#Cc1nc(COc2cccc(Cl)c2)oc1N1CCCC1	96
CC1CN(C(=O)C2CCC2)CC(C)O1 (centres undefined)	106
CC(C)c1cc[nH]c1-c1ccccc1	100
O=C1CCCN1CCC12CC3CC(CC(C3)C1)C2	102
Nc1c(C(=O)c2cccs2)sc2nsc(SCCN3CCCCC3)c12	84
CCn1c(-c2ccc(F)cc2)csc1=Nc1ccc(C)cc1	101
CC(=O)NC(C)c1nc2ccccc2n1Cc1ccccc1C (centres undefined)	102
CCCn1c(CCCNC(=O)c2ccccc2)nc2ccccc21	94
O=S(=O)(NC1CCCCC1Nc1ccccc1Br)c1ccccc1 (centres undefined)	102
CCCc1c(-c2nc(-c3ccc(Cl)cc3)no2)cnn1-c1ccccc1	104
COC(=O)[C@@H](N)CCCN=C(N)N[N+](=O)[O-]	100
(more compounds)
SMILES	VACV E9 pol inh
Cc1cc(=O)n2nc(N(C)CC(=O)NCc3ccccc3)sc2n1	106
COCCN1CCn2c(nc3cc(Nc4nnc(C)c5ccccc45)ccc32)C1	100
CCOC(=O)Nc1ccc2c(CCl)cc(=O)oc2c1	100
CCN(Cc1ccccc1)C(=O)Cn1c(=O)n(NC(=O)c2ccccc2)c(=O)c2sccc21	102
Cc1nnc(-c2ccccc2)o1	100
Cc1cccc(Nc2cc(C)nc3ccccc23)c1	77*
COc1ccc(-c2nc(-c3ccc(C)cc3C)cs2)cc1	90
CCc1nc2ccccc2c(=O)n1-c1ccccc1Cl	96
COC(=O)c1ccc(CN)cc1	99
Cc1cc2cc(CNC(=O)CCC(=O)O)ccc2n1C	99
COC(=O)c1cccc(N=C(N)N=C(N)N)c1	110
Cc1ccc(S(=O)(=O)N2c3ccccc3C(C)(c3ccccc3)CC2(C)C)cc1 (centres undefined)	99
O=C(O)CCC12CC3CC(CC(Cl)(C3)C1)C2	96
Cc1cccc(N(C(=O)Nc2ccc(Cl)cc2)C2=NCC(C)S2)n1 (centres undefined)	100
NC(N)=NC(N)=Nc1ccc(Cl)cc1	101
COC(CNC(=O)CN1CCN(Cc2ccccc2)C1=O)OC	98
O=C(NS(=O)(=O)c1ccccc1)c1ccccc1	97
c1cn(-c2ccc(-c3ccno3)cc2)cn1	91
CSc1nc(NC(=O)C(F)(F)F)cc(=O)[nH]1	76
COc1ccc(-c2cc3ccccc3n2CC(O)CNCc2ccccc2)cc1 (centres undefined)	100
COc1ccccc1NC(=O)C12CC3CC(CC(C3)C1)C2	99
CC(=O)Nc1cc(NC(C)=O)c2nc(N)sc2c1	100
NNC(=O)C1CCCNC1=O (centres undefined)	100
CC(NC(=O)COc1ccccc1C(C)(C)C)c1ccccc1 (centres undefined)	100
O=C1C(Br)=CC(=CN(O)c2ccccc2)C=C1Br	88
Next records
SMILES	VACV E9 pol inh
O=c1ncn(-c2ccccc2)[nH]1	82
Cn1c(SCC(N)=O)nnc1-c1c[nH]c2ccccc12	100
CCOc1ccc(-c2nc3s/c(=C\C4=Cc5ccccc5OC4)c(=O)n3n2)cc1	98
O=C(O)CC12CC3CC(C1)CC(CC(=O)O)(C3)C2	98
O=C(Oc1ccc(OCc2ccccc2)cc1)c1ccc(-n2cnnn2)cc1	95
O=C(O)c1ccc(-n2c(-c3ccccc3)cc3c2CCCC3=O)cc1	100
Cc1cccc(Nc2nnc(-c3ccc(C)c(S(=O)(=O)NCCO)c3)c3ccccc23)c1	100
O=C(Nc1ccc(F)cc1)C(=S)NC1CCCCC1	103
O=C(CNc1cccc(F)c1)N1CCc2ccccc2C1	100
CCCn1cnc2cc(NCc3cccc(OC)c3)ccc21	101
CC1CCCCN1C(=O)CSc1nnc2ccccn12 (centres undefined)	98
COC(=O)c1ccc(NC(=O)CC23CC4CC(CC(C4)C2)C3)cc1	96
COc1ccc(C(=O)NCc2cc3cc(Cl)ccc3[nH]2)cc1COc1ccccc1Cl	101
O=C(Nc1ncccc1O)c1ccc(Oc2ccccc2)cc1	79
O=C(Nc1cccc(C(F)(F)F)c1)c1ccc(-c2ccccc2)cc1	99
COc1ccc(CCNC(=S)NCCc2ccccc2)cc1OC	110
COc1ccc(-c2nsc(SCC(N)=O)n2)cc1	100
O=C(CSC1CCCCC1)N1CCN(c2ccccc2)CC1	100
O=C(CSc1nc2ccccc2o1)NCC1CCCCC1	102
COC(=O)c1scc(C#N)c1N=CN(C)C	108
O=S(=O)(c1cc(OCC(F)(F)F)ccc1OCC(F)(F)F)n1cccc1	106
Cc1ccc(NC(=O)c2ccc(Br)o2)cc1	102
NS(=O)(=O)c1ccc(NC(=O)C2CC=CCC2C(=O)N2CCOCC2)cc1 (centres undefined)	100
CC(=O)N(CCN(C)C)c1nc2cc(C)cc(C)c2s1	83
O=C(Cn1nc(-c2ccccc2)ccc1=O)N1CCOCC1	88
Next part
SMILES	VACV E9 pol inh
C/C(CC(=O)c1ccccc1)=N\n1cnnc1	98
C=C(C)Cn1c(SCC(=O)O)nnc1-c1ccccc1	100
CCN(CC)Cc1ccc(Nc2ccnc3cc(Cl)ccc23)cc1O	96
FC(F)(F)c1ccccc1Nc1nc(-c2cccnc2)cs1	99
O=C(OCn1nnc2ccccc2c1=O)C12CC3CC(CC(C3)C1)C2	96
COC(=O)C(Cc1c[nH]c2ccccc12)NS(=O)(=O)c1cccc2nonc12 (centres undefined)	108
O=C(CCN1C(=O)C2C3C=CC(C3)C2C1=O)Nc1ccccc1 (centres undefined)	100
CN(C)S(=O)(=O)c1ccc(C(=O)Nc2nc3c(s2)CCc2ccccc2-3)cc1	100
O=c1ccc(=O)n(CN(c2ccccc2)c2ccccc2)[nH]1	101
CCn1c(=O)c(=O)n(CC)c2cc(S(=O)(=O)NC3CCCCC3)ccc21	97
Cc1ccc(-c2csc(=N)n2-c2ccccc2)cc1	97
S=c1[nH]nc(C2CCCCC2)n1N=Cc1ccncc1	101
N#Cc1c(-c2ccc3c(c2)OCO3)cc(-c2ccccc2O)[nH]c1=O	98
C/C(=C\c1nsc(Nc2ccc(F)c(Cl)c2)n1)N1CCC(C)CC1	92
FC(F)(F)c1cnc(-n2cc(C3OCCO3)c3ccccc32)c(Cl)c1	85
C=CCn1cnc2scc(-c3ccc(Cl)cc3)c2c1=O	101
COC(=O)c1ccc(NC(=O)CSC(=S)N2CCOCC2)cc1	99
COc1ccc(CC(=O)Sc2nc3ccccc3o2)cc1	101
CCc1ccc(CNC(=O)c2ccc(Sc3ccc(C)cc3)c(NC(C)=O)c2)cc1	107
CCOC(=O)N1CCN(C(=O)c2cnn3ccccc23)CC1	100
CCOC(=O)C1CCN(Cc2cn3c(-c4ccc(Br)cc4)nnc3s2)CC1	99

Laid out differently: 6 of the compounds above.
SMILES,VACV E9 pol inh
O=C(CCN1C(=O)C2C3C=CC(C3)C2C1=O)Nc1ccccc1 (centres undefined),100
CN(C)S(=O)(=O)c1ccc(C(=O)Nc2nc3c(s2)CCc2ccccc2-3)cc1,100
O=c1ccc(=O)n(CN(c2ccccc2)c2ccccc2)[nH]1,101
CCn1c(=O)c(=O)n(CC)c2cc(S(=O)(=O)NC3CCCCC3)ccc21,97
Cc1ccc(-c2csc(=N)n2-c2ccccc2)cc1,97
S=c1[nH]nc(C2CCCCC2)n1N=Cc1ccncc1,101
